# HCMV UL50-53 inh: cytomegalovirus nuclear egress complex inhibition; actives 0.15% (n = 190,000); HTRF UL50-UL53 interaction, normalized percent inhibition; AID 1918969; inhibition, % (no concentration beside the values);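 active = both replicates at 50% or more, plus weaker picks with an unusually low signal ratio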;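 also: stock transfer was 100 nL into about 20 µL; 0% = negative control wells and 100% = wells with untagged competitor protein; inactives centre near -12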
# Sa growth 42C: S. aureus growth inhibition | relative growth, % (test concentration not listed) | S. aureus RN4220 growth, OD600, 20 h, 42 °C; active compounds read low | actives 0.53% (n = 170,000) | AID 720641;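 active = growth at 42 °C up to 50% and 20 or more points under that at 30 °C, or under 10% at both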;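 also: 300 nL library stock went into each well; scaled to the means of positive and negative controls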
# GIV Gai3 FP: blocks GIV peptide binding to rat Galpha-i3; percent of control (FP), % (no concentration beside the values); Galpha-i3/FITC-GIV peptide fluorescence polarization, 90 min; active compounds read low; scaled: aluminum fluoride 0%, vehicle 100%; actives 0.42% (n = 210,000); P08753;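 active = replicate mean at 85% of control or lower, very high polarization wells dropped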;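 also: wells of about 15 µL received 100 nL stock; the first replicate is given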
# Target sequence (P08753 whole entry, looked up): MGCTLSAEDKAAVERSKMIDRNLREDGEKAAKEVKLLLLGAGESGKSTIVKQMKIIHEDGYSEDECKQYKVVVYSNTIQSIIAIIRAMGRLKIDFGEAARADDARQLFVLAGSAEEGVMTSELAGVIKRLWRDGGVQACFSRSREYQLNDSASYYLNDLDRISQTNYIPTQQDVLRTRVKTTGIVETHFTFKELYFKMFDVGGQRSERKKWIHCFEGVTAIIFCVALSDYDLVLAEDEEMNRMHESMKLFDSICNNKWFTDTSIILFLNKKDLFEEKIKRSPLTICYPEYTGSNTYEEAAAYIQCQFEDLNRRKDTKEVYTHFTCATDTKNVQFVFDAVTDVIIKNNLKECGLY
# Sa growth 42C second temp: also measured in Sa growth 42C; calls as there; relative growth, %; measured here: growth at 30 °C;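 optical density after 20 h as mean of two plates; 100% = untreated growth and lower means inhibition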
# Starred values were filed as active, the others as inactive; . = not tested or not shown; & = joins results of further samples.
SMILES,HCMV UL50-53 inh,Sa growth 42C,Sa growth 42C second temp,GIV Gai3 FP
COCc1c(C(=O)OCC(=O)N2c3ccccc3CC2C)oc2ccccc12 (stereo unspecified),-15,120,94,.
Cc1ccc(P(/C=C2\N(C)c3ccccc3C2(C)C)(=Nc2ccc(S(N)(=O)=O)cc2)N2CCOCC2)o1 (stereo unspecified),-8,75,90,.
O=C(Nc1cccc(Cl)c1)c1cc2c(=O)[nH]c3ccccc3c2s1,-21,105,85,98
O=C1C2CCC(C(O)C2)N1Cc1ccccc1 (stereo unspecified),8,102,98,106
O=C(NCCCN1CCc2ccccc2C1)Nc1ccc(Cl)cc1,-10,101,56,111
O=C(O)Cn1c2ccccc2c2nc3ccccc3nc21,-86,108,74,93
Cc1cc(NC(=O)CSc2nc3ccccc3c(=O)n2CCc2ccccc2)no1,2,99,87,101
COc1cccc(CC(=O)n2nc(N)c3cc4ccc(OC)cc4nc32)c1,-6&-40,101,85,97&98
CCN(C(=O)c1nn(C)c2c1CSc1ccccc1-2)c1cccc(C)c1,7,87,86,105
Cc1ccc(-c2cc(NC(=O)CNC(C)c3ccc(F)cc3F)on2)cc1 (stereo unspecified),-17,80,99,.
O=C(Nc1nc2ccc(Cl)cc2s1)C1CN(C(c2ccccc2)c2ccccc2)C1,-28,94,84,98
COc1ccc(Cn2cnc3c4ccccc4n(CC(=O)Nc4ccc(C)c(Cl)c4)c3c2=O)cc1,-24,.,.,103
COc1ccccc1CCNC(=O)c1ccc(NC(=O)N2CC(C)Sc3ccccc32)cc1 (stereo unspecified),-36,108,89,103
O=C(Nc1ccc(S(=O)(=O)NCC2CCCO2)cc1)C1CC(=O)N(c2ccc(Cl)cc2)C1 (stereo unspecified),.,96,90,105
Cc1ccc(C=Nc2ccccc2OCc2ccccc2)cc1C,-8,102,76,.
O=C(NCCCN1CCN(c2cccc(Cl)c2)CC1)c1nc(-c2ccncc2)no1,3,107,89,110
COCCCn1c(=N)c(C(=O)NC2CCCCC2)cc2c(=O)n3cc(C)ccc3nc21,-67,108,81,105
CCOC(=O)Cc1nnc2c(Nc3cc(C)ccc3C)nc3nonc3n12,-9,83,107,97
CCn1cc(NC(=O)NCc2ccco2)c(=O)c2ccc(C)nc21,-14,93,77,97
COc1ccc(C2c3ccsc3CCN2C(=O)NC(C)(C)C)cc1 (stereo unspecified),-25,97,98,102
Cc1nc(Cc2c(Cl)cccc2Cl)[nH]c(=O)c1Cl,1,107,105,106
CCn1cc(N)c(C(N)=O)n1,7,91,90,99
Cc1c(Cl)cccc1NS(=O)(=O)c1cn(C)cn1,-6,.,.,100
c1cc(CNC2CCCCC2)n(-c2nnc(N3CCCC3)s2)c1,-12,96,81,104
CCOC(=O)c1sc2ncn(CC(=O)N(CC)CC)c(=O)c2c1C,-34,.,.,104
O=C(NCCn1c(CCc2ccccc2)nc2cccnc21)c1ccc(Br)cc1,4,.,.,107
COc1c(C)cnc2c1c(=O)n(CC(=O)NCc1ccc3c(c1)OCO3)c(=O)n2C,-1,.,.,98
COc1ccccc1CN(C)C(=S)NC1CC1,-22,96,87,.
Cn1nc(C(=O)NCCc2ccc(Cl)cc2)c2c1-c1ccccc1SC2,-28,92,92,96
Cc1cccc(-c2nnc(SCCC(=O)O)o2)c1,-14,86,90,101
CN(C1CCCCC1)S(=O)(=O)c1cc(C(=O)N2CCCC2)cs1,-2,.,.,106
Cc1ccc(N(C)C(=O)CCS(=O)(=O)c2ccc3c(c2)n(C)c(=O)c(=O)n3C)cc1,.,107,102,101
O=C(O)CCCC(=O)Nc1cccc(C(=O)O)c1,-13,78,90,101
CC1(C)CC(=O)C(C2C3=C(CC(C)(C)CC3=O)Oc3ccccc32)C(=O)C1 (stereo unspecified),-1&-6,97,92,.
CC(=O)n1c2c(c3ccccc31)OC(N)=C(C#N)C2c1ccc(C(C)C)cc1 (stereo unspecified),-10,109,78,.
Cc1cc(/C(=N/O)C(C)(C)NO)ccc1Cl,.,79,92,108
Cc1cc2n(n1)CCCN2Cc1ccc(C(=O)Nc2ccc(F)cc2)cc1,-11,.,.,101
CNC(=O)c1cc2c(=O)n3ccccc3nc2nc1NC1CCCC1,-150,90,93,109
COc1ccc(NC(=O)c2c(NC(=O)CSc3nnc(C4CC4)n3C)sc3c2CCCC3)cc1,4,114,89,.
O=C1Nc2ccccc2/C1=C/c1ccccc1,.,62,61,109
CC1CSc2ccc(S(=O)(=O)N3CCCC3)cc2N(CC(=O)N2CCc3ccccc32)C1=O (stereo unspecified),-3,.,.,97
O=c1cc(CN2CCN(S(=O)(=O)/C=C/c3ccccc3)CC2)nc2sccn12,-14,98,98,.
COc1ccc(CN2C(=O)c3oc4ccccc4c(=O)c3C2c2ccc(O)cc2)cc1 (stereo unspecified),-14,90,88,95
O=C(COC(=O)Cc1c[nH]c2ccccc12)Nc1ccccc1,-16,103,83,.
Cc1oc(C(=O)O)cc1CSCc1cc(C(=O)O)oc1C,-30,76,94,88
CN(C(=O)c1nn(C)c2c1COc1ccccc1-2)c1cccc(C(F)(F)F)c1,-16,99,90,102
CC(C)NC(=O)CSc1nc(-c2ccc(F)cc2)cc(C(F)(F)F)n1,.,102,92,107
COc1ccc(NC(=O)N2CCN(C/C=C/c3ccccc3)CC2)cc1,.,96,85,103

# Taken from the entries so far for reference:
SMILES,HCMV UL50-53 inh,Sa growth 42C,Sa growth 42C second temp,GIV Gai3 FP
Cc1cc(/C(=N/O)C(C)(C)NO)ccc1Cl,.,79,92,108
Cc1cc2n(n1)CCCN2Cc1ccc(C(=O)Nc2ccc(F)cc2)cc1,-11,.,.,101
CNC(=O)c1cc2c(=O)n3ccccc3nc2nc1NC1CCCC1,-150,90,93,109
COc1ccc(NC(=O)c2c(NC(=O)CSc3nnc(C4CC4)n3C)sc3c2CCCC3)cc1,4,114,89,.
O=C1Nc2ccccc2/C1=C/c1ccccc1,.,62,61,109
CC1CSc2ccc(S(=O)(=O)N3CCCC3)cc2N(CC(=O)N2CCc3ccccc32)C1=O (stereo unspecified),-3,.,.,97
O=c1cc(CN2CCN(S(=O)(=O)/C=C/c3ccccc3)CC2)nc2sccn12,-14,98,98,.
COc1ccc(CN2C(=O)c3oc4ccccc4c(=O)c3C2c2ccc(O)cc2)cc1 (stereo unspecified),-14,90,88,95
O=C(COC(=O)Cc1c[nH]c2ccccc12)Nc1ccccc1,-16,103,83,.
Cc1oc(C(=O)O)cc1CSCc1cc(C(=O)O)oc1C,-30,76,94,88
CN(C(=O)c1nn(C)c2c1COc1ccccc1-2)c1cccc(C(F)(F)F)c1,-16,99,90,102
CC(C)NC(=O)CSc1nc(-c2ccc(F)cc2)cc(C(F)(F)F)n1,.,102,92,107
COc1ccc(NC(=O)N2CCN(C/C=C/c3ccccc3)CC2)cc1,.,96,85,103

# (cont.)
SMILES,HCMV UL50-53 inh,Sa growth 42C,Sa growth 42C second temp,GIV Gai3 FP
CCOC(=O)N1CCN(CC(=O)N2c3ccccc3Sc3ccccc32)CC1,3,64,69,103
O=C(C1CCC(Cn2c(=O)c3sccc3n(Cc3ccccc3)c2=O)CC1)N1CCCCC1 (stereo unspecified),.,81,87,96
COCCN(C(=O)c1noc2c1COc1ccccc1-2)C1CCN(C(C)=O)CC1,15,.,.,100
Cc1cc(O)c(C(c2ccccc2)N2CCN(C)CC2)c(=O)n1Cc1ccco1 (stereo unspecified),.,118,102,103
CCC(C)(C)C(=O)NC(c1ccccc1)c1ccccc1,-11,103,86,.
CCOC(=O)c1ccc(CN(Cc2ccc(F)cc2)S(=O)(=O)c2ccc(F)c(C(=O)Nc3ccccc3C(F)(F)F)c2)cc1,.,115,99,99
Cc1ccccc1Nc1nc(N)nc(CSc2ncnc3sc4c(c23)CCC4)n1,-6,98,92,.
Cc1ccccc1C(=O)Nc1nnc(S(=O)(=O)N(C)Cc2ccc(Cl)cc2)s1,.,91,92,102
C1COCCNCCOCCN1,-14,88,76,98
CCCn1c(=O)c2ccccc2n2c(SC(C)C(=O)Nc3ccc(Cl)cn3)nnc12 (stereo unspecified),1,90,94,.
CCN1CCN(CCCNC(=O)c2cc3sccc3n2Cc2ccc(F)cc2)CC1,-15,102,90,103
Cc1cc(C)c2c(c1)c(C)cc1nnc(SCC(=O)c3ccccc3)n12,-16,103,87,102
O=C(Oc1cccc(Nc2ncnc3ccccc23)c1)c1cccs1,.,108,87,111
O=C1NC23CCCCC2C(c2ccccc2O3)C1C(=O)N1CCOCC1 (stereo unspecified),-8,93,100,102
C(=C\c1ccccc1)/CSc1ncnc2c1oc1ccccc12,.,94,82,103
O=C(CSc1nc(-c2ccc(F)cc2)[nH]c1-c1ccccc1)NC1CCCC1,.,107,84,96
COC(=O)c1ccc(S(=O)(=O)N2CCCN(Cc3ccccc3)CC2)n1C,4,101,86,106
O=C(Nc1nc2ccc(NC(=O)C3CCC3)cc2s1)c1ccccc1,-13,.,.,105
Cc1ccc(-n2nc3c(n2)/C(=N/O)CCC3)cc1,47*,86,51,79*
CCOc1ccc(OCC(=O)Oc2ccc3c(c2)OCO3)cc1,-13,104,103,.
Cc1ccc(NC(=O)c2c(O)c3ccccc3[nH]c2=O)c(C)c1,-16,93,89,102
O=C(c1cccnc1)N(C1CCCCC1)C1CCCCC1,3,100,85,.
COc1ccc(C(=O)Nc2ccc3c(c2)C(=O)N(C)C3=O)cc1OC,.,98,94,97
O=C(Cc1ccccc1)Nc1cccc(S(=O)(=O)c2cccc(NC(=O)Cc3ccccc3)c2)c1,.,150,84,100
O=C(c1cnn2c1NC(c1ccc(Br)cc1)CC2C(F)(F)F)N1CCCC1 (stereo unspecified),-19,102,78,104
COc1ccc(NC(=O)c2cc(C(C)=O)n3ccccc23)cc1Cl,.,110,87,106
O=C(CCC(=O)NC1CCCC1)Nc1nc(-c2cc3ccccc3oc2=O)cs1,-5,90,83,103
CCc1ccccc1NC(=O)Cn1c(C(=O)OC)cc2oc(C)cc21,-43,135,99,103
CCCN(CCN1CCNCC1)C(O)C1C(=O)CC(C)(C)CC1=O (stereo unspecified),5,105,99,99
Cc1nn(-c2ccc(Cl)cc2)c2nc(-c3cccnc3)cc(C(F)(F)F)c12,-16,105,89,103
O=C1NC(=NC2CCCC2)S/C1=C\c1ccc(-c2ccc(F)cc2)o1,-16,93,92,.
O=C(CNS(=O)(=O)c1cccs1)NCc1ccccc1,1,91,95,108
O=C(/C=C/c1ccco1)OCc1nnc(-c2ccccc2)o1,-50,100,96,.
CCC(C(=O)N1CCN(Cc2ccc3c(c2)OCO3)CC1)N1C(=O)CCn2nc(C)cc21 (stereo unspecified),4,.,.,103
CN1CC(=O)N(CN2CCN(S(=O)(=O)c3ccccc3C#N)CC2)C1=O,-26,92,91,.
COc1ccc2cc3c(nc2c1)N(S(=O)(=O)c1ccc(F)cc1C)CC3,8,.,.,106
CC(=O)Nc1cccc(Oc2cc(C#N)c(C#N)cc2N2CCCCCC2)c1,-2,106,78,104
Cc1c(-n2c(-c3ccccc3Br)n[nH]c2=S)c(=O)n(-c2ccccc2)n1C,-16,86,83,.
O=C(COC(=O)C1CC(=O)N(Cc2ccccc2)C1)c1ccc(F)cc1 (stereo unspecified),-12,94,86,.
COC(=O)C(CC(C)C)NC(=O)Cn1cnc2ccccc2c1=O (stereo unspecified),-10,78,91,.
CN1C(=O)Cc2cc(S(=O)(=O)CCC(=O)N3CCN(c4ccc(Cl)cc4)CC3)ccc21,.,105,76,110
FC(F)(F)c1ccc(Nc2ccc3c(c2)CCC3)nc1,5,92,104,.
COCCn1ccc2nc(C)c(C(=O)NC3CCCCC3)cc2c1=O,-31,.,.,100
Cc1ccc(NC(=O)Nc2nnc(SCC(=O)N(C(C)C)C(C)C)s2)cc1,.,110,88,94
CN(C)S(=O)(=O)c1ccc2oc3nnc(SCC(=O)C(C)(C)C)n3c2c1,0,97,91,.
CCc1cc(Br)ccc1OCC(=O)O,-6,91,99,101
Cc1nn2c(=O)/c(=C/C=C/c3ccccc3)sc2nc1=O,.,105,86,89
COc1cc(CNC(C)C)cc(OC)c1,-11,98,107,101
CCCCc1ccc(NC(=O)c2cc3c(=O)n4ccccc4nc3n2C)cc1,-5,125,98,102
CCOc1ccccc1C(=O)NCCc1ccccc1,5,64,77,.
CCc1ccc(N2CCN(CCNC(=O)Nc3ccccc3)CC2)cc1,-1,113,104,102
O=C(CSc1ncn[nH]1)N1c2ccccc2Sc2ccccc21,27&-14,19,27,99&104
CCN1CCN(c2oc(-c3ccc(S(=O)(=O)N4CCCC(C)C4)cc3)nc2C#N)CC1 (stereo unspecified),-37,.,.,100
COc1ccccc1OCC(=O)N1CCN(c2ccccc2)CC1,-7,94,87,101
S=c1sc2c(s1)SCCS2,-37,86,89,.
Cc1noc(-c2ccccc2)c1NC(=O)Nc1ccc2sccc2c1,-18,100,76,109
COc1ccc(S(=O)(=O)N2CC(=O)N(c3ccc(C)c(F)c3)C(C)(C(=O)NC3CCCCC3)C2)cc1 (stereo unspecified),-29,.,.,101
CCn1ccc2cc(S(=O)(=O)N3CCC(C(=O)NCc4cccc(C)c4)CC3)ccc21,.,92,91,101
O=C(CCC(=O)c1cccs1)Nc1ccc(OCc2ccccc2)cc1,-12,97,87,.
CCCOc1ccc(/C=N/NC(=O)c2cccc(S(=O)(=O)N3CCOCC3)c2)c(O)c1,5,118,95,.

# Bioassay records deposited in PubChem BioAssay by ICCB-Longwood Screening Facility, Harvard Medical School.
